Mtb betalactam = beta-lactam sensitization of Mtb H37Rv. M. tuberculosis H37Rv growth with meropenem, percent inhibition; hits of this screen are not shown here. inhibition, % at 25 µM. 0.27% of 330,000 active. AID 434955;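 active = about 74% or more and at least 40 points above the plate without the antibiotic, then above 30% in a dose series; inconclusive = first-round hits that could not be retested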;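 note: growth measured after seven days incubation then overnight dye step; 0% = bacteria only wells and 100% = bacteria with antibiotic; twin plates without the antibiotic show which effects depend on it; some results filed as inactive read as strong as hits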
YopH inh = YopH (Yersinia) phosphatase inhibition; fluorescence Ex485/Em525; inhibition, %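 (about 10 µM by stock and volumes)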; 0.16% of 140,000 active; AID 898;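 active = inhibition of 50% or more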;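 note: controls were vehicle for no effect and minimum signal wells for full effect; inactives centre near -20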
Mtb H37Rv = M. tuberculosis H37Rv growth inhibitors, H37Rv strain (AID 1626); M. tuberculosis H37Rv growth inhibition; higher % means a stronger effect; inhibition, % at 10 µM; hits with a dose series show IC50 in µM; 0.95% of 220,000 active;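 active = confirmed in a dose series; inconclusive = inhibition above 80% but not taken into the dose series; inactive = below 80% or under 30% at every dose of the series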;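 note: bacteria incubated seven days before Alamar blue readout; 0% = bacteria only wells and 100% = bacteria with antibiotic wells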
Arbovirus anti = arbovirus infection inhibition; arbovirus infection cell-based antiviral screen; inhibition, % at 10 µM; 0.37% of 200,000 active; AID 1251;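 active = inhibition from about 30%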;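 note: bluetongue infection of BSR cells; cell survival read as ATP light after 72 h; 0% = infected wells without compound and 100% = uninfected wells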
RecA splice inh = inhibitors of M. tuberculosis RecA intein splicing | P9WHJ3 | cell-free RecA intein splicing, fluorescence | inhibition, %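 (about 9 µM by stock and volumes)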 | 0.75% of 290,000 active | AID 2221; in the data active = inhibition above about 30%; inconclusive = no clear call, values can overlap the other calls;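 note: 0% = vehicle wells and 100% = reference inhibitor control wells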
Target sequence (P9WHJ3 whole entry, looked up, canonical isoform): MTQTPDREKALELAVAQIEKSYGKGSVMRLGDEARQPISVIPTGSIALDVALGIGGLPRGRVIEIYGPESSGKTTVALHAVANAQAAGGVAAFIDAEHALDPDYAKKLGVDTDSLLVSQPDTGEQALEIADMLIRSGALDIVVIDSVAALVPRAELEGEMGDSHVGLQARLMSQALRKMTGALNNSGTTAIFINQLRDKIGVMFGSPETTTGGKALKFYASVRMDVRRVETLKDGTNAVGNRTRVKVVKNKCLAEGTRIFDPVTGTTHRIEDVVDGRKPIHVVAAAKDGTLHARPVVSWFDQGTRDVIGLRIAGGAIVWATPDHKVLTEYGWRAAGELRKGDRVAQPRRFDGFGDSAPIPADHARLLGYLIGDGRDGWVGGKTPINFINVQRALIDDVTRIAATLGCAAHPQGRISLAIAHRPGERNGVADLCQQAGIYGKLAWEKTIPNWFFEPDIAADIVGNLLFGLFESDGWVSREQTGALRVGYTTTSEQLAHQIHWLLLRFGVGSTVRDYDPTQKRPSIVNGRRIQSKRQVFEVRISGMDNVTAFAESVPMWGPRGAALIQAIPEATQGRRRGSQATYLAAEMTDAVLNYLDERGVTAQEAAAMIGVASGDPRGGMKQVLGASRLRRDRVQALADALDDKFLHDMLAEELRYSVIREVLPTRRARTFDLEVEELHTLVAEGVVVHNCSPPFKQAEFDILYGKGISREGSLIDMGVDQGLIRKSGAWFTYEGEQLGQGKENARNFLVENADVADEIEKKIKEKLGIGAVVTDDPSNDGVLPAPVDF
Arbovirus anti repeat = further read-out of Arbovirus anti, marked with its call; inhibition, %; measured here: 10K subset replicate screen; many hits read low in the repeat;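 first of two repeat runs on a subset; 0% = infected and 100% = uninfected wells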
Numbers without * were called inactive; u = inconclusive; x = no result given; & = joins results of further samples. This is a subset; rates above refer to the full screens.

SMILES | Mtb betalactam | YopH inh | Mtb H37Rv | Arbovirus anti | RecA splice inh | others
COc1ccc(N2CCN(c3cnc4ccccc4n3)CC2)cc1 | 31 | x | -9% | -8 | -1.2
CC(C)(C)[C@@H]1C=C(C(=O)O)O[C@H](OCc2ccc(CO)cc2)C1 | -10 | x | -5% | 1 | 2.2
Cc1ccc(C)c(S(=O)(=O)N2CCN(CC(=O)NC(=O)NCc3ccco3)CC2)c1 | -3 | x | -5% | 6 | 1.4
COC(=O)C(Cc1ccccc1)NC(=O)COc1ccc(C(C)(C)C)cc1 (centres undefined) | 36 | -21 | 9% | 3 | 5.6
Cc1ccc(C(=O)Nc2nc(C)c(C)s2)o1 | -4 | -8 | -9% | -12 | -0.1
COc1ccc(NC(C)=O)cc1NC(=O)CSc1nnc(-c2ccc(F)cc2)n1N | -4 | -34 | -4% | -4 | -2.5
CCOC(=O)c1c(NC2=NS(=O)(=O)c3ccccc32)sc2c1CCCCC2 | 8 | -30 | 14% | 12 | -15
CC(=O)Nc1ccc(NC(=O)C(=O)c2cn(CC(=O)N3CCCC3)c3ccccc23)cc1 | 10 | x | x | x | -3.6
Cc1nc(C)c(CCNC(=O)c2ccccc2Br)s1 | -7 | -29 | 1% | -1 | -1.0
Cc1nnsc1C(=O)NNS(=O)(=O)c1cc(C(F)(F)F)cc(C(F)(F)F)c1 | 15 | x | -5% | x | -4.2
Cc1ccc(CNc2oc(COc3ccccc3Cl)nc2C#N)cc1 | 11 | -64 | 0% | 7 | 6.4
COC(=O)c1ccccc1NC(=O)CN(c1ccc(C)cc1)S(C)(=O)=O | 0 | x | x | x | 1.8
CNC(=O)COC(=O)COc1ccc2c(C)cc(=O)oc2c1 | -1 | x | 0% | 0 | -1.9
CCn1c(SCC(=O)Nc2nnc(C)s2)nnc1C(C)NC(=O)c1ccccc1F (centres undefined) | -11 | x | x | x | -0.4
COc1ccc(S(=O)(=O)NC(Cc2cnc[nH]2)C(=O)O)cc1 (centres undefined) | 0 | -29 | 0% | -1 | 0.2
COc1ccc(S(=O)(=O)Nc2cc(C(=O)NCCCN3CCOCC3)ccc2N2CCOCC2)cc1 | 1 | x | 0% | 2 | 1.3
CC(=O)N1CCC(CCCC2CCN(C(C)=O)CC2)CC1 | -6 | x | x | x | -2.9
Cc1ccc(Cn2c(=N)c(C(=O)NC3CCCCC3)cc3c(=O)n4ccccc4nc32)cc1 | 88 | x | x | x | -47
CC1=CC(C)C2(CO)COC(c3ccc(O)cc3)C1C2C (centres undefined) | 0 | x | 13% | -3 | -0.2
Cc1ccc(C)c(C(=O)NCCN(C)C)c1 | -5 | 2 | -8% | 1 | 1.3

Reprinted from the part before: 2 compounds, followed by the next part.
SMILES | Mtb betalactam | YopH inh | Mtb H37Rv | Arbovirus anti | RecA splice inh | others
CC1=CC(C)C2(CO)COC(c3ccc(O)cc3)C1C2C (centres undefined) | 0 | x | 13% | -3 | -0.2
Cc1ccc(C)c(C(=O)NCCN(C)C)c1 | -5 | 2 | -8% | 1 | 1.3
CC(=O)Nc1cccc(OCC(=O)NC(C)C(C)C)c1 (centres undefined) | -23 | -5 | -25% | 14 | 0.7
COc1cc(/C=N/NC(=O)C(NC(=O)c2ccccc2)c2n[nH]c(=O)c3ccccc23)ccc1OCC(N)=O (centres undefined) | 5 | x | x | x | -1.8
CC1(c2ccc(OC(F)F)cc2)NC(=O)N(CC(=O)Nc2ccc(S(N)(=O)=O)cc2)C1=O (centres undefined) | 7 | x | 7% | -3 | -1.3
CC1CCN(S(=O)(=O)c2ccc3[nH]c(=O)ccc3c2)CC1 | 2 | x | x | x | 0.1
CCN1C(=O)[C@H]2[C@H]3[C@H](O)[C@H](O)C/C(=N\O[C@H](C)c4cn([C@H](CO)Cc5ccccc5)nn4)[C@@H]3CC[C@H]2C1=O | 0 | -33 | x | 10 | -3.1
Cc1cc(C(=O)NCCCC(=O)O)c(C)o1 | 1 | -32 | -5% | 11 | 2.3
c1ccc(-c2ccccc2-c2nc(-c3ccncc3)no2)cc1 | 14 | 11 | 13% | 4 | 18
COc1ccc(CNC(C)CCc2ccccc2)cc1 (centres undefined) | -1 | x | x | x | 0.2
Cn1c(=O)[nH]c(=O)c2c1nc(N1CCN(CCO)CC1)n2Cc1ccccc1Cl | -6 | x | x | x | 1.1
COc1ccc(NC(=O)CN2C(=O)COc3ccc(S(=O)(=O)N4CCOCC4)cc32)cc1Cl | 1 | x | x | x | -0.3
CCOc1ccc(N2C(=O)C3C(c4ccccc4F)NN(C(=O)c4ccc(C)cc4)C3C2=O)cc1 (centres undefined) | -3 | -34 | x | -2 | -5.0
CCOC(=O)c1ccc(N2C(=O)C(O)=C(C(C)=O)C2c2ccccn2)cc1 (centres undefined) | 0 | -19 | -11% | 7 | -3.2
C[N+]1(CCn2ccc3ccccc32)CCCCC1 | 3 | x | -2% | -7 | 0.1
NC(=O)CC(NC(=O)c1cccc(Br)c1)c1ccc(N2CCN(c3ccc(F)cc3)CC2)c([N+](=O)[O-])c1 (centres undefined) | 3 | x | x | x | -3.1
CCOC(=O)c1sc(NC(=O)C2CC(=O)N(c3ccc(OCC)cc3)C2)nc1C (centres undefined) | 95 | x | x | x | -7.2
Cc1cccc(C(=O)NCC(=O)Nc2ccncc2)c1 | -7 | x | x | x | -0.9
CC(C)(Cc1ccc(O)cc1)NC(=O)SCc1ccccc1 | 15 | x | x | x | -3.0
O=c1[nH]c2ccccc2cc1CN(Cc1cccnc1)S(=O)(=O)c1ccc([N+](=O)[O-])cc1 | -1 | x | x | x | 0.7
COC/C=C/C1=CC2=CC(=O)C(C)(OC(=O)c3cnc4ccccc4n3)C(=O)C2=CN1C(CO)CO (centres undefined) | 3 | x | -4% | x | 2.7
CC(=O)c1c(COC(=O)c2ccco2)nc2ccccc2[n+]1[O-] | -5 | x | 5% | x | -0.2
CC1=C(C(=O)OCc2ccccc2)C(c2ccccc2OC(F)F)NC(=O)N1 (centres undefined) | -13 | -20 | 1% | 29 | 1.1
Cc1occc1C(=O)NNC1=CC(=O)CC(C)(C)C1 | -6 | -9 | -13% | -1 | -1.7
Cc1noc(C)c1C(=O)N1CCC(C(=O)c2ccccc2)CC1 | 3 | x | -4% | x | -3.6
COc1ccc(-n2c3nc4ccccc4nc3c3c(=N)oc(C)nc32)cc1 | -4 | 1 | 4% | -3 | 72*
CCOC(=O)c1c(CN2CCC(C)CC2)oc2ccc(OC)cc12 | 3 | 5 | 3% | 6 | 1.3
CCOc1ccc(-c2nnc(N)s2)cc1 | -4 | -8 | -9% | -6 | 1.4
CCOC1=NN(c2ncc(C(F)(F)F)cc2Cl)C(=O)/C1=C/N(C)C | 0 | x | 4% | -4 | 2.2
CC(C)(C)c1ccc(-n2ncc3c2CCCC3NC(=O)c2ccncc2)cc1 (centres undefined) | 7 | x | x | x | -1.5
CCCOc1ncnc2c1[nH]c1ccc(C)cc12 | -1 | x | -5% | x | x
O=C(Cn1c(=O)oc2ccccc21)NC(=O)NCc1ccco1 | 7 | 7 | -2% | -4 | 1.7
O=C(CSCc1ccc([N+](=O)[O-])cc1)NC1CC1 | 2 | -24 | 0% | -7 | 1.3
Nn1c(SCc2cccc(Br)c2)nnc1-c1cccnc1 | -6 | x | 1% | x | 0.1
O=C(Nc1cccc(O)c1)c1ccc(NC(=O)c2cccs2)cc1 | -4 | x | x | x | 2.4
CCOC(=O)/C=C1\CN(Cc2cc(OC)c(OC)c(OC)c2)S(=O)(=O)c2ccc(C(F)(F)F)cc21 | 1 | x | x | x | -0.5
CC(C)c1nc2sc3c(=O)[nH]cnc3c2c2c1CCC2 | 13 | -23 | 5% | 11 | 3.3
CCOP(=O)(OCC)C(NC(=O)C(Cl)Cl)C(Cl)(Cl)Cl (centres undefined) | -12 | 1 | 1% | 15 | 3.1
Cc1cc(=O)n2[nH]c(-c3ccccc3Cl)cc2n1 | 19 | -41 | 5% | -1 | -0.2
O=C(COC(=O)[C@@H]1CC(O)CN1S(=O)(=O)c1ccc2c(c1)OCCO2)Nc1ccccc1F (some centres undefined) | -1 | x | 0% | 11 | 0.8
Cc1cc(O)ccc1N/C=C(\C#N)c1nc2ccccc2o1 | 2 | 4 | -4% | -3 | -3.1
Cc1ccc(NC(=O)CCNS(=O)(=O)c2cccc3nonc23)cc1Cl | 0 | x | 65% | -8 | 3.0
CS(=O)(=O)N(CC(=O)NCC1CCCO1)c1cc(Cl)c(Cl)cc1Cl (centres undefined) | -12 | x | 2% | 6 | -0.5
Cc1cc2nnc(SC3CCCCN(C(=O)c4ccc(F)cc4)C3=O)n2c2ccccc12 (centres undefined) | 12 | -6 | x | -5 | -1.7
COc1ccc(N2CC(NC(=O)N3CCN(c4ccccc4)CC3)CC2=O)cc1 (centres undefined) | -2 | x | 8% | 0 | -1.3
Nc1ccc(Cl)c(NC(=O)c2cccs2)c1 | 1 | 6 | 36% | 1 | 3.2
Fc1ccccc1CSc1ncnc2sc3c(c12)CCCC3 | 15 | -17 | 11% | 18 | 14
Cc1cc(C)nc(SCC(=O)OCC(=O)Nc2nc3ccccc3s2)n1 | u | -41 | 3% | -7 | 1.6
C[N+]1(C)CCc2cc3c(cc2[C@H]1[C@@H]1OC(=O)c2c1ccc1c2OCO1)OCO3 | 0&-2 | -11 | 0%&-1% | 0&1 | -4.0&-6.1
COCCCNCCC(CCC(C)C)c1ccc2c(c1)OCO2 (centres undefined) | -4 | x | 9% | x | 0.6
O=C(CNCc1ccccn1)Nc1cc(C(F)(F)F)ccc1N1CCOCC1 | 6 | x | x | x | -0.8
COc1cccc(NC(=O)Cn2c(CCC(=O)O)ccc2-c2ccc(C)cc2)c1 | -2 | x | 7% | -2 | 2.2
N#C/C(=C/c1cc[nH]c1)C(N)=S | 7 | x | 5% | 4 | 1.4
CCn1c(SCC(=O)N/N=C/c2ccc(O)c(OC)c2)nc2ccccc21 | -5 | -3 | 0% | -12 | -2.3
O=C(CN(C(=O)c1csnn1)c1ccc(F)cc1)NCCc1ccccc1 | -7 | x | x | x | -0.4
COc1ccccc1C(=O)Nc1nnc(-c2ccc3c(c2)CCCC3)o1 | 95 | -45 | u | -16 | 6.0 | Arbovirus anti repeat=0
NC(Cc1ccc(Oc2ccc(O)cc2)cc1)C(=O)O (centres undefined) | -2 | -26 | x | 3 | -0.5
COc1ccccc1NC(=O)CN1CCN(CC(=O)Nc2ccc(OC)c(OC)c2)CC1 | -2 | x | x | x | 1.4
CCNc1nc(N)nc(Oc2ccc(OCCOc3ccccc3)nn2)n1 | -1 | -49 | -7% | -3 | -6.4
COc1ccc(NC(=O)Nc2cc(C)ccc2F)cc1OC | -1 | x | 6% | 2 | -0.3
CCCn1c(N2CCN(CC(=O)c3c(C)n(C)c4ccc(OC)cc34)CC2)nc2c1c(=O)[nH]c(=O)n2C | x | 17 | x | -1 | -1.1
COc1cc(/C=C2\SC(=S)N(CCC(=O)Nc3ccc(O)cc3)C2=O)cc(OC)c1OC | 9 | x | x | x | 13
(cont.)
SMILES | Mtb betalactam | YopH inh | Mtb H37Rv | Arbovirus anti | RecA splice inh | others
N#C/C(=C/c1ccccc1[N+](=O)[O-])C(=O)NCc1ccco1 | 1 | -16 | -1% | 5 | -4.0
CCN(CC)c1ccc(NC(=O)c2ccc3c(c2)OCO3)c(C)c1 | 0 | x | x | x | -2.0
O=C(NNc1cccc(Cl)n1)c1ccc(Cl)cc1Cl | -7 | -11 | 2% | -1 | 1.1
CC(=O)Nc1ccc(S(=O)(=O)NCCC(=O)Nc2ncccc2C)cc1 | 3 | x | x | x | -4.8
Cc1ccc(S(=O)(=O)N2CCN(C(=O)c3ccccc3)CC2)cc1 | u | 1 | -1% | 4 | -7.0
Cc1ccccc1-n1nc2c(c1NC(=O)c1c(-c3ccccc3Cl)noc1C)CS(=O)(=O)C2 | -3 | -46 | x | 4 | 2.8
CCOC(=O)CSc1nc2ccc(N3CCOCC3)cc2c(=O)n1Cc1ccccc1 | 11 | -23 | -3% | 6 | -5.3
CCOC(=O)c1ccc(NS(=O)(=O)c2cc(C)ccc2OC)cc1 | 2 | 5 | -9% | 9 | -0.9

Arranged by formula weight (rising): four of the compounds above.
SMILES | Mtb betalactam | YopH inh | Mtb H37Rv | Arbovirus anti | RecA splice inh | others
N#C/C(=C/c1ccccc1[N+](=O)[O-])C(=O)NCc1ccco1 | 1 | -16 | -1% | 5 | -4.0
O=C(NNc1cccc(Cl)n1)c1ccc(Cl)cc1Cl | -7 | -11 | 2% | -1 | 1.1
CCOC(=O)CSc1nc2ccc(N3CCOCC3)cc2c(=O)n1Cc1ccccc1 | 11 | -23 | -3% | 6 | -5.3
Cc1ccccc1-n1nc2c(c1NC(=O)c1c(-c3ccccc3Cl)noc1C)CS(=O)(=O)C2 | -3 | -46 | x | 4 | 2.8

High-throughput results: PubChem, several laboratories
